Source: PubChem BioAssay
D2 ag – activates the human D2 dopamine receptor; P14416; DiscoveRx PathHunter D2 beta-arrestin, luminescence, 90 min; 100% = 57 uM dopamine signal; activation, % (test concentration not listed); hit rate 0.084% among 360,000; AID 624465; in the data active = activation above about 40%; inconclusive = about 15% to 40%; inactive = below about 15%; further: compound concentration not given in the record; the text of the record calls up to 30% inactive
Target sequence (P14416 whole entry, looked up): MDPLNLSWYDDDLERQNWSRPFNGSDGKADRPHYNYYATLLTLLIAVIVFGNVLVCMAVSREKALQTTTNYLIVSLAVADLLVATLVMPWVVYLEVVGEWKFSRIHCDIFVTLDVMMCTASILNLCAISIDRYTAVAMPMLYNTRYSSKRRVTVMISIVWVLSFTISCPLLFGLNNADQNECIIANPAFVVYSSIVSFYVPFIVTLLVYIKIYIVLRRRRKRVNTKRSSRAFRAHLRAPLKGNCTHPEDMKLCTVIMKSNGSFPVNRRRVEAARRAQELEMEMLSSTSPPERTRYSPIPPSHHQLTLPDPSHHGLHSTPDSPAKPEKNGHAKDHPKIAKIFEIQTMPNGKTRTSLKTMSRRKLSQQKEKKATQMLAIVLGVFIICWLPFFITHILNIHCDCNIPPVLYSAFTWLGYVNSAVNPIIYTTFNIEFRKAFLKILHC
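Agonist mode: compounds alone added to overnight-plated D2 PathHunter cells for 90 min at 37 C, with 57 uM final dopamine (EC100) defining full response. Beta-arrestin recruitment detected by chemiluminescent reagent, read after 1 h at ambient temperature.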
Sfp PPTase inh – Sfp phosphopantetheinyl transferase inhibition; AID 1490; Biochemical Sfp PPTase activity, qHTS; Potency, µM, for the others: max response, negative = inhibition, hits mostly inhibitors; hit rate 3.5% among 310,000; Q9F4F7; active means well fitted inhibition curve with a large enough effect; inconclusive means small, poorly fitted or top-dose-only effect, or another doubt; inactive means no such curve, though single readings can be large or run the other way;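 further: the enzyme is Sfp with the accession as filed and its product quenches rhodamine fluorescence; potency means the concentration at half of the fitted maximal effect; 0% = enzyme reaction without inhibitor and -100% = no enzyme wells; top concentration of the series not given in the record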
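Fluorescence-quenching assay: 15 nM Sfp-PPTase preincubated 15 min at room temperature with compound, then 5 uM rhodamine-CoA and 12.5 uM BHQ-2-labelled YbbR peptide added. Fluorescence (ex 525/em 598 nm) read at start and after 30 min; difference gives rate.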
gsp ag – activates gsp, the McCune-Albright syndrome mutation; gsp mutant cells, cAMP HTRF, 30 min; control for the full effect not named in the record; Potency, µM (doses to about 76.9 µM), for inactives: top-dose activation (cAMP increase), usual class: activators; hit rate 0.13% among 340,000; AID 624287; active = well fitted activation curve with a large enough effect; inconclusive = small, poorly fitted or top-dose-only effect, or another doubt; inactive = no such curve, though single readings can be large or run the other way; cell line not stated here;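 further: phosphodiesterase inhibitor Ro 20-1724 added with compounds to block cAMP breakdown; potency means the concentration at half of the fitted maximal effect; nearly all actives have a fitted effect of over 60% in size; about a fifth of the inactives were tested at one dose only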
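Cells stably selected in G418 were plated at 2000/well, grown 16-24 hr, then given compounds in DMSO with the PDE inhibitor […] (300 uM solution added) for 30 min at 37C; cAMP was read by HTRF.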
Menin MLL FP FL – displaces fluorescein MLL peptide from human menin | Fluorescence polarization, fluorescein-MLL peptide displacement from menin | FP activity change, % at 61.4 µM | 290,000 tested, under 10 active | AID 1766; inconclusive = falling polarisation curve, or a change in total fluorescence; inactive = total fluorescence flat and polarisation flat or rising; no compound was filed as active; the % refers to the polarisation; negative = inhibition;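 further: % of control where 0% means no effect; inhibitors lower the polarisation; unlabelled MLL peptide was the positive control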
PINK1 modulator – changes PINK1 expression. PINK1 immunofluorescence, high-content cytometry, 24 h. Potency, µM (titrated, usually from 76.6 µM), for inactives: at the top dose activation (PINK1 increase), usual class: activators. hit rate 0.2% among 410,000; active = well fitted activation curve with a large enough effect; inconclusive = small, poorly fitted or top-dose-only effect; inactive = flat fitted curve, though single readings scatter; cell line not stated here;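 further: potency means the concentration at half of the fitted maximal effect; % of control where 0% means no effect; nearly all actives have a fitted effect of over 65% in size; a mitochondrial uncoupler was the plate control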
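Decision-based qHTS: stable cells, 24 h exposure to five compound concentrations, CCCP as control. Fixed cells stained for PINK1 plus nuclear, mitochondrial and cell markers, cytometer read.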
gsp antag – antagonists of gsp mutant (McCune-Albright syndrome); Potency, µM (titrated, usually from 76.9 µM), without a hit: at the highest dose activity change, negative = inhibition, usual class: inhibitors; gsp-mutant cells, cAMP HTRF, 30 min; control for the full effect not named in the record; hit rate 0.4% among 340,000; active = falling curve of any shape with a large fitted effect; inconclusive = falling curve, mostly with a smaller effect; inactive = flat or rising curve; cell line not stated here;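 further: intracellular cAMP measured with PDE inhibitor Ro 20-1724 present during compound exposure; potency means the concentration at half of the fitted maximal effect; on the % scale 0 is the no-effect control and ±100 the full control effect; nearly all actives have a fitted effect of over 65% in size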
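G418-selected cells were plated in DMEM/10% FBS for 16-24 h at 37C, then treated with compounds plus the PDE inhibitor […] (300 uM solution added) for 30 min at 37C. Intracellular cAMP was measured by HTRF after 30 min lysis at room temperature.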
ClpP mod – qHTS Assay for Activators of ClpP; Potency, µM (series often up to 57.5 µM), inactives show top-dose activity change, negative = active; purified B. subtilis ClpP, FRET peptide cleavage, 20 min; hit rate 1.9% among 340,000; ATP-dependent Clp protease proteolytic subunit (Bacillus subtilis (strain 168)), P80244; active = well fitted falling curve with a large enough effect; inconclusive = small, poorly fitted or top-dose-only effect; inactive = no such curve, though single readings can be large or run the other way; further: potency means the concentration at half of the fitted maximal effect; the source files actives as falling curves though it sought activators and does not explain the sign; nearly all actives have a fitted effect of over 65% in size; many hits overshoot -100%
Target sequence (P80244 whole entry, looked up): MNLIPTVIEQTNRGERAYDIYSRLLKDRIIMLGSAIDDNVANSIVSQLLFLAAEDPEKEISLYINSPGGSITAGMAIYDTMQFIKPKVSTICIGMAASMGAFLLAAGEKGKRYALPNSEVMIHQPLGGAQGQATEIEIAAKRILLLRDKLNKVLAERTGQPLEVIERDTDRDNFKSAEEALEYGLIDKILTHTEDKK
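ClpP 10 microg/mL final, pH 8 Tris/KCl buffer with BSA, glycerol, Tween-20; compound pinned in; FRET-FV substrate; RT 20 min; Ex320/Em430; ΔFRET vs ADEP 5.8 microM, DMSO, no enzyme.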
* = called active by the depositor; ? = inconclusive; . = not tested or not shown; & = joins results of further samples; [ ] = another dose, or the depositor's remark.

SMILES | D2 ag | Sfp PPTase inh | gsp ag | Menin MLL FP FL | PINK1 modulator | gsp antag | ClpP mod
COc1cc(CNn2cn[nH]c2=S)cc(Cl)c1OCc1ccc(F)cc1 | 5.4 | -4% | 7% | 5.0 | 4.0% | -26% | 1.0%
Cc1c2ccccc2cc[n+]1CCCS(=O)(=O)[O-] | -0.4 | 20% | ? | -2.9 | -1.7% | 4% | .
O=c1onc(-c2ccc(Cl)cc2Cl)n1-c1cccnc1 | 60* | 29% | 0%[15.4 µM] | -0.7 | 0.2% | -8% | -0.1%
CCn1c(SCC(=O)NCCCN2CCCC2=O)nnc1-c1cccc(C)c1 | 0.5 | . | -7% | . | 6.7% | -13% | -2.3%
O=C(NC(=S)N1CCOCC1)c1cn(-c2ccccc2)nc1-c1ccccc1 | 0.9 | . | -6% | . | 0.4% | 3% | 2.2%
OC[C@H]1O[C@@H](n2cnc3c(Nc4ccccc4)ncnc32)[C@H](O)[C@@H]1O | 13 | 12% | . | -0.2 | 0.8% | -2% | 0.6%
CNC(=O)c1ccc(-c2cc3onc(-c4ccccc4)c3c(=O)n2C)cc1 | 0.2 | . | . | . | 3.0% | ? | -6.9%
CC(OC(=O)c1cc2sccc2n1C)C(=O)NCc1ccco1 (stereo not drawn) | -0.9 | 10% | -8% | 0.6 | . | -14% | -0.9%
O=C(CCc1ccccc1)NNC(=O)COc1ccc([N+](=O)[O-])cc1 | 0.4 | 22% | -14% | . | -1.3% | -11% | 0.5%
CN(C)Cc1c(C(=O)N/N=C/c2cccnc2)nnn1-c1nonc1N | -6.4 | 28% | 22% | . | -1.2% | 0% | -0.3%
NS(=O)(=O)c1cccc(NC(=O)COC(=O)c2ccc(S(=O)(=O)N3CCOCC3)cc2)c1 | -0.6 | . | -51%[inhibitor] | . | 1.3% | -8% | 3.1%
N#CCn1cnc2sc(-c3ccccc3)cc2c1=O | 4.9 | 3% | 4%[15.4 µM] | 8.1 | -1.4% | -10% | .
O=C(c1cccc(S(=O)(=O)N2CCOCC2)c1)N1CCN(Cc2ccc3c(c2)OCO3)CC1 | -1.0 | 7% | -4%[15.4 µM] | -1.5 | 0.5% | -5% | -1.2%
Nc1nc(SCC(=O)NCc2ccccc2Cl)[nH]c(=O)c1NC(=O)c1ccccc1F | -1.9 | -28% | -7% | 0.8 | -0.4% | 8% | -3.1%
Cc1oc2cc3oc(=O)c(CCC(=O)NCCN4CCOCC4)c(C)c3cc2c1C | 2.7 | 11% | . | 2.2 | 0.6% | -4% | -5.6%
CCc1nc(Nc2ccc3c(c2)OCO3)c2oc3ccccc3c2n1 | 5.0 | -23% | 13% | -0.9 | 9.6% | ? | 6.4%
O=C(NCC1CC1)C1(C(F)(F)F)C/C(=C\Cc2ccccc2)CCCO1 (stereo not drawn) | -3.0 | 9% | . | 1.7 | 2.9% | -12% | 0.3%
CCS(=O)(=O)c1nc(S(=O)(=O)c2ccc(C)cc2)c(N2CCC3(CC2)OCCO3)s1 | 5.7 | 8% | 13% | . | -0.6% | -1% | -2.2%
CN(CC(=O)NCc1ccc2c(c1)OCO2)S(=O)(=O)c1ccc(F)cc1 | 0.6 | 19% | -11% | -1.8 | 0.5% | 13% | .
COc1cc(/C=C/C(=O)OCC(=O)c2ccc(OC(F)F)cc2)ccc1O | -2.5 | . | -2%[15.4 µM] | . | 1.8% | -20% | -3.3%

Next section, starting with the last two of the part before.
SMILES | D2 ag | Sfp PPTase inh | gsp ag | Menin MLL FP FL | PINK1 modulator | gsp antag | ClpP mod
CN(CC(=O)NCc1ccc2c(c1)OCO2)S(=O)(=O)c1ccc(F)cc1 | 0.6 | 19% | -11% | -1.8 | 0.5% | 13% | .
COc1cc(/C=C/C(=O)OCC(=O)c2ccc(OC(F)F)cc2)ccc1O | -2.5 | . | -2%[15.4 µM] | . | 1.8% | -20% | -3.3%
CCOc1ccccc1NC1=C(Cl)C(=O)N(Cc2ccccc2)C1=O | -2.6 | -17% | 3% | 3.7 | -0.6% | 2% | -2.5%
CCOC(=O)C1=C(C)Nc2nc(C)nn2C1c1ccc(C)cc1 (stereo not drawn) | -0.8 | 2% | -3% | 1.3 | 0.7% | 2% | -6.1%
Cc1ccc(S(=O)(=O)NC(=O)Nc2nccs2)cc1 | -0.5 | -4% | -18% | -0.1 | 0.4% | 3% | 2.9%
COC(=O)C1CCCCN1C(=O)c1cccc(OC2CCN(C(=O)C3CC3)CC2)c1 (stereo not drawn) | -2.2 | 7% | -7% | -2.5 | -2.5% | 5% | 20%
COc1ccccc1C(=O)NCCC(=O)NCCC12CC3CC(CC(C3)C1)C2 | -3.6 | 5% | -22% | . | -0.5% | 0% | -1.6%
O=S(=O)(c1ccccc1)N(F)S(=O)(=O)c1ccccc1 | -0.9 | . | 22% | . | 1.2% | 14% | 0.2%
CCNc1ncc2nc(-c3ccc(OC)cc3)c(=O)n(C)c2n1 | . | -14% | . | ? | 0.0% | . | .
CCOc1cc(/C=N/NC(=O)c2nn(C)cc2Br)ccc1OCc1ccccc1 | -6.2 | -6% | -8% | 9.2 | 7.4% | ? | ?
NC1=CC(=O)C(=O)c2ccccc21 | ? | . | 15%[15.4 µM] | . | -1.1% | -12% | 0.1%
CCn1c(SCC(=O)Nc2nc(C)c(C)s2)nc2cccnc21 | 0.7 | -9% | -25% | -1.8 | 0.2% | -6% | -1.5%
COc1ccc(-n2ncc3c2CC(C)(C)CC3NC(=O)c2ccc(OC)o2)cc1 (stereo not drawn) | -13 | 1% | 12% | 8.2 | 0.8% | -23% | 0.3%
O=C(COc1ccc(F)c(Cl)c1)NC(=O)NC1CCCC1 | -2.4 | . | 31% | . | 1.7% | . | -0.9%
COCCC(=O)Nc1ccc2c(c1)CN(C(=O)CSC)CC2 | -6.1 | 15% | -27% | 2.7 | 0.4% | 7% | -0.8%
O=C(O)CSc1nc2ccccc2s1 | -5.9 | -11%&10% | 3% | 5.5&2.6 | -0.9% | 1% | -2.1%
CC(C)(C)NC(=O)C1(C)CCC(=O)N1C1CC1 (stereo not drawn) | -2.1 | . | . | . | -0.3% | . | 1.3%
O=S(=O)(Nc1ccccc1N1CCCCC1)c1ccc(Cl)s1 | 0.3 | -13% | -2% | 1.4 | -1.8% | -18% | 0.3%
Cc1[nH]nc2c1C(c1cccc(O)c1)C1=C(CC(C)(C)CC1=O)N2 (stereo not drawn) | 0.4 | 10% | 12% | 0.1 | 1.2% | 2% | 28µM*
Cc1nnc2n1CCCCC2 | -7.5 | 16% | -5%[15.4 µM] | -0.1 | 1.0% | 15% | -0.1%
COC1=CC(=O)c2ccccc2C1=O | 7.3 | . | . | . | 20% | -1% | 3.1%
O=S(=O)(/N=C(/c1ccccc1)N1CCOCC1)c1ccc(F)cc1 | 8.0 | 11% | ? | ? | 3.3% | 6% | .
COc1ccc(-n2cc(C(=O)c3cc4ccccc4oc3=O)c(C(C)=O)n2)cc1 | -4.4 | 7% | 2% | 11 | 3.4% | -4% | 0.0%
CC(C)(C)OC(=O)C[C@@H]1C/C=C\C[C@@H](CC(=O)N(CCO)Cc2ccccc2)C(=O)NC[C@H](c2ccccc2)OC1=O | -9.1 | . | -68%[inhibitor] | . | 0.3% | -3% | -0.6%
Cc1ccc(C(=O)C(OC(=O)c2cnccn2)c2ccccc2)cc1C (stereo not drawn) | -3.8 | -5% | 4% | 7.3 | -0.4% | -9% | 1.4%
O=C(CCC(=O)Nc1nnc(C2CCCCC2)s1)NCC1CCCO1 (stereo not drawn) | -0.6 | 20% | 0% | -0.7 | -2.4% | 7% | -4.6%
O=C(CSc1ccc2c(c1)OCCO2)Nc1ccc2c(c1)OCO2 | 2.8 | 16% | -8% | 5.1 | -0.1% | -4% | -0.2%
c1ccc(-c2csc(NNC3=NCCCCC3)n2)cc1 | -6.0 | 40µM* | 18% | -0.8 | 15% | 5% | -4.3%
CCOC(=O)CN(C#N)c1nc(N(C)C)nc(N(C)C)n1 | -9.5 | 18% | 2% | -0.5 | -0.3% | -1% | -1.6%
O=C(Nc1ccc(N2CCOCC2)c(Cl)c1)c1ccc(-n2cnnc2)cc1Cl | -3.1 | 9% | 17% | . | 0.5% | -25% | 1.3%
O=C(CS(=O)(=O)c1ccc(Cl)cc1)Nc1nccs1 | -7.7 | . | -19% | . | 11% | . | -5.7%
Cc1c(Cl)cccc1NC(=O)CSc1nc(=O)n(CCCN2CCOCC2)c2c1CCC2 | -3.3 | . | ? | . | -5.8% | -2% | 20µM*
CC1=C/C(=C(/c2ccc(O)c(C)c2)c2ccccc2S(=O)(=O)O)C=CC1=O | -5.3 | . | 25% | . | 0.6% | 0% | -2.1%
CN1CCN2c3ccccc3CC(C#N)(C#N)C2C1 (stereo not drawn) | -1.0 | . | . | . | 0.1% | . | -1.1%
Cc1ccc(S(=O)(=O)NNC(=S)Nc2c(Cl)cccc2Cl)cc1 | -1.1 | 25% | 2%[15.4 µM] | -3.0 | 0.3% | 6% | .
Cn1c(=O)c2c(nc(NCCOc3ccc(C(C)(C)C)cc3)n2C)n(C)c1=O | 2.0 | 22% | -5% | -0.2 | 3.1% | 9% | -1.4%
Cc1ccc(C(=O)OCC(=O)N2CCC(C)CC2)cc1S(=O)(=O)N1CCOCC1 | -2.1 | . | ? | . | 5.1% | . | -0.9%
COc1ccc(Cl)cc1C(=O)NNC(=O)c1cccc(S(=O)(=O)N(C)C)c1 | -12 | 8% | 15%[15.4 µM] | -4.0 | 0.3% | 2% | -0.2%
Cc1ccccc1NS(=O)(=O)c1cccc2nsnc12 | 0.1 | 14% | -8%[15.4 µM] | -1.6 | 5.4% | 9% | 0.1%
CCOC(=O)C1CN(S(=O)(=O)c2cccc(C(F)(F)F)c2)c2cc(CC(=O)OC)ccc2O1 (stereo not drawn) | -2.2 | 5% | 5% | 5.6 | 2.0% | -18% | 1.3%
O=C(NCCc1cccc(Cl)c1)c1cccnc1 | 0.6 | -10% | 24% | 3.4 | 0.2% | -2% | -3.2%
Cc1ccc2c(c1)N(CC(=O)NCCCN1CCOCC1)C(=O)C(C(C)C)O2 (stereo not drawn) | -4.8 | . | -1%[15.4 µM] | . | -0.2% | 15% | -2.3%
